Sa ugtP lethal: growth inhibition of ugtP-null S. aureus, primary screen, RN4220 ugtP deletion, OD600 | hit rate 0.54% among 330,000 | growth inhibition, % (concentration not given with the values) | 16 h; some inactives read as strong as hits;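 active = z-score under -3 and OD600 up to 0.15 on both plates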;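 note: plate controls were untreated wells for no effect and antibiotic for full effect; wells of about 80 µL received 100 nL stock; the first replicate is given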
Autofluor counter: counter-screen for toxin protease inhibitors: compound fluorescence | compound autofluorescence counterscreen, microsphere flow cytometry; active compounds read high | fluorescence intensity (concentration not given with the values) | hit rate 3.1% among 360,000 | AID 624483;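 active = at least 3 SD above the mean of all compounds, about 16000 in these data; inconclusive = too few beads counted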;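 note: 100 nL of 1 mM stock went into each well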
BJeLR lethal: MLPCN primary cell-based screen for lethality selective to Ras in HRASV12 cells; AID 1554, 2009; inhibition, % (concentration not given with the values); hit rate 0.17% among 300,000; BJeLR (HRASV12) viability, CellTiter-Glo ATP luminescence, 48 h; reference of the scale not given here;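 active = replicate mean above 50%; inconclusive = above 50% but judged a plate artefact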;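 note: 50 nL library stock added to about 25 µL; numbers are from one replicate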
Mtb hypoxia rep: PubChem AID 1159583. fluorescence inhibition, % (concentration not given with the values). M. tuberculosis hypoxia-regulated fluorescent reporter, fluorescence. hit rate 0.1% among 300,000;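 active = 35 to 45% if threefold the growth effect, above 45% if 1.5-fold the growth effect; inactive = the rest, general growth blockers included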;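 note: wells of about 50 µL received 100 nL stock; 0% = vehicle wells and 100% = reference inhibitor wells; whole bacteria with a GFP reporter of the hypoxia response; strong numbers were not always called active; many hits fall short of the cut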
RN4220 kill: growth inhibition of S. aureus RN4220, primary screen, OD600; inhibition, % (concentration not given with the values); AID 1259311, 2017; hit rate 0.33% among 330,000; 16 h;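 active = z-score of -3 or lower and OD600 up to 0.18 on both plates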;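 note: plate controls were untreated cells for no effect and reference antibiotic for full effect; stock transfer was 100 nL into about 80 µL; one replicate is shown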
PrP 5UTR inh: inhibition of PrP 5' UTR reporter expression | cell-based PrP 5' UTR mRNA reporter, plate reader | inhibition, % (test concentration not listed) | hit rate 0.35% among 340,000 | AID 488862, 2010;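 active = every replicate at 50% or more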;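 note: 0 = median of the neutral control wells; tested in H4 reporter cells; numbers are from one replicate; inactives centre near -14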
Mtb hypoxia rep growth: recorded beside Mtb hypoxia rep, whose call it bears; growth inhibition, %; measured here: M. tuberculosis growth (absorbance);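 0% = vehicle and 100% = reference antibiotic; read after six days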
* = called active by the depositor; u = inconclusive; x = not tested or not shown; & = joins results of further samples.

SMILES | Sa ugtP lethal | Autofluor counter | BJeLR lethal | Mtb hypoxia rep | Mtb hypoxia rep growth | RN4220 kill | PrP 5UTR inh
Cc1nnc(NC(=O)CSc2n[nH]c(-c3ccccc3)n2)s1 | -2 | 4304 | 0 | 2 | 16 | 3.8 | -3
O=C1NCCCCC1NS(=O)(=O)c1cccc2ccccc12 (stereo not drawn) | 6 | 3513 | -4 | 6 | 12 | 1.7 | -15
CCOC(=O)c1c(C)[nH]c(C(=O)COC(=O)C2(C)CC2(Cl)Cl)c1C (stereo not drawn) | -5 | 23186* | 4 | 1 | 10 | 5.6 | -34
CN(CC(=O)N1CCc2ccccc2C1)c1ccccc1 | 6 | 3370 | -4 | 8 | 7 | 0.8 | x
COc1ccc(C(=O)Nc2ccnn2C2CCN(C(C)CSC)CC2)cc1 (stereo not drawn) | 4 | 5643 | 6 | 12 | 10 | 3.6 | -11
COc1ccc(-c2cc(C(=O)Nc3cccnc3Cl)no2)cc1OC | -2 | 3062 | 0 | 4 | -3 | -4.3 | -11
CCOc1ccc(C(=O)NCC(C)C)cc1 | 7 | 6833 | -6 | 12 | 22 | 3.8 | -7
Cc1cccc(N2CCN(C(=S)NCCc3ccccc3)CC2)c1C | -5 | 9003 | 7 | -6 | -9 | -6.2 | 2
COc1ccccc1CNC(=O)CN1C(=O)NC2(CCC(C)CC2)C1=O (stereo not drawn) | 10 | 3580 | x | 16 | 0 | 3.2 | -34
O=[N+]([O-])c1cccc(/C([O-])=C(/C(=S)Nc2cccc3ccccc23)[n+]2ccccc2)c1 | 1 | 2128 | x | 10 | -13 | -0.6 | -4
O=C(Nc1ccc(N2CCCCC2)cc1)c1ccc(F)cc1 | 0 | 6597 | 3 | x | x | 1.0 | -59
CC(Sc1nc(N2CCOCC2)nc(N2CCOCC2)n1)C(=O)Nc1ccccc1 (stereo not drawn) | -5 | 3694 | -11 | 3 | 4 | 0.9 | 0
O=C(O)C1C2C=CC(O2)C1C(=O)Nc1cccc(C(F)(F)F)c1 (stereo not drawn) | 2 | 3874 | -2 | 3 | -5 | -1.7 | -17
Cc1ccc(-c2cc3nn(-c4ccccc4)c(N)c3c(=O)o2)cc1 | -8 | 5490 | 5 | -6 | 5 | -6.4 | -61
COc1ccc(C(=O)Nc2ccc(O)c3ccccc23)cc1 | -5 | 6577 | -1 | 1 | 4 | 7.2 | -24

Single values from the list:
In BJeLR lethal, `O=C(O)C1C2C=CC(O2)C1C(=O)Nc1cccc(C(F)(F)F)c1` (stereo not drawn) has -2
In Mtb hypoxia rep growth, `COc1ccc(-c2cc(C(=O)Nc3cccnc3Cl)no2)cc1OC` has -3
In PrP 5UTR inh, `O=C(Nc1ccc(N2CCCCC2)cc1)c1ccc(F)cc1` has -59
In Autofluor counter, `COc1ccc(C(=O)Nc2ccnn2C2CCN(C(C)CSC)CC2)cc1` (stereo not drawn) has 5643

Reprinted from the listing (4 entries):
SMILES | Sa ugtP lethal | Autofluor counter | BJeLR lethal | Mtb hypoxia rep | Mtb hypoxia rep growth | RN4220 kill | PrP 5UTR inh
Cc1nnc(NC(=O)CSc2n[nH]c(-c3ccccc3)n2)s1 | -2 | 4304 | 0 | 2 | 16 | 3.8 | -3
O=C1NCCCCC1NS(=O)(=O)c1cccc2ccccc12 (stereo not drawn) | 6 | 3513 | -4 | 6 | 12 | 1.7 | -15
CCOC(=O)c1c(C)[nH]c(C(=O)COC(=O)C2(C)CC2(Cl)Cl)c1C (stereo not drawn) | -5 | 23186* | 4 | 1 | 10 | 5.6 | -34
CN(CC(=O)N1CCc2ccccc2C1)c1ccccc1 | 6 | 3370 | -4 | 8 | 7 | 0.8 | x

Following part.
SMILES | Sa ugtP lethal | Autofluor counter | BJeLR lethal | Mtb hypoxia rep | Mtb hypoxia rep growth | RN4220 kill | PrP 5UTR inh
Cc1ccc(C)c(C(=O)OCC(=O)Nc2ccc(N3CCOCC3)cc2)c1 | 2 | 3188 | 4 | 8 | 3 | 9.9 | -2
COc1ccc(NC(=O)CN(C)C(=O)CSCc2c(C)noc2C)cc1 | 1 | 6100 | 8 | 8 | 2 | 1.7 | -24
CC(C)(C)OC(=O)N1CCC(CC2CC(c3ccncc3)=NO2)(C(=O)O)CC1 (stereo not drawn) | -1 | 3721 | 3 | 8 | 4 | 3.6 | -18
Oc1ccc(CNc2ccccc2F)c2cccnc12 | -10 | 3646&9291 | -11 | 11 | 11 | 8.6 | 20
O=C(c1ccco1)N1CCN(CCCCOc2ccc(F)cc2)CC1 | 8 | 2169 | 11 | 9 | 4 | 0.4 | -12
S=c1[nH]nc(-c2ccco2)n1-c1ccc(Br)cc1 | 9 | x | -6 | -10 | -5 | 1.6 | -11
CC(=O)c1cccc(NC(=O)C2CCN(S(=O)(=O)c3ccc(F)cc3)CC2)c1 | -1 | 9536 | 1 | 2 | 11 | 5.4 | -22
CCc1ccc(NC(=O)C(CC)Sc2nc3ccsc3c(=O)n2CCC(=O)O)cc1 (stereo not drawn) | 0 | 6069 | -6 | 1 | 4 | 1.7 | -6
C/C(N)=C(/C#N)C(=O)COC(=O)CCCNC(=O)c1ccc(Cl)cc1 | 6 | 4336 | 4 | 8 | 5 | 0.2 | -34
Nc1nc(-c2ccc3c(c2)CCCC3)c(CC(=O)O)s1 | -3 | 3589 | 0 | -1 | -3 | 6.6 | -17
O=C(Nc1nc(-c2ccccn2)cs1)c1ccco1 | -5 | 4917 | 8 | 10 | 27 | 7.8 | -7
COc1cc(C(=O)NC(=S)N(C)Cc2ccccc2)cc(OC)c1OC | 5 | 4391 | -6 | 3 | -1 | 5.9 | -6
O=C(NCc1ccc2c(c1)OCO2)c1ccncc1 | -5 | 10066 | 5 | 1 | 7 | 4.6 | -11
COc1cc2[nH]c3c(=O)n(CCN(C(C)C)C(C)C)cnc3c2cc1OC | 9 | 4957 | 4 | 1 | 4 | 2.1 | -2
CCC(Sc1nc(C)cc(=O)[nH]1)C(=O)Nc1nnc(C)s1 (stereo not drawn) | 1 | 4653 | -3 | x | x | -5.3 | -13
CCC1(c2cccc(Cl)c2)NC(=O)N(Cc2cc(C(=O)OC)c(C)o2)C1=O (stereo not drawn) | -16 | 4366 | 2 | -3 | -4 | -1.0 | -8
CN(C=O)c1ccc(CSc2ccccc2)cc1 | 3 | 3002 | x | 6 | 2 | 5.1 | -64
O=C(NCCCCc1ccccc1)C1CC(c2ccc(C(F)(F)F)cc2)=NO1 (stereo not drawn) | 15 | 4026 | -7 | 6 | 6 | 4.7 | -12
COc1ccc2oc(=O)cc(-c3cc4ccccc4o3)c2c1 | -2 | 5258 | 8 | 2 | 14 | 4.0 | 7
C/C(CC(=O)Nc1ccc(Cl)c(Cl)c1)=N\NC(=O)C(=O)N1CCCCC1 | x | 5648 | 2 | x | x | x | -27
COc1ccc(N2CC(C(=O)N3CCN(C)CC3)CC2=O)cc1 (stereo not drawn) | 0 | 3987 | -5 | 1 | 6 | 2.7 | -16
O=C(CO)N/N=C/c1cccc(Cl)c1Cl | x | 2142 | 5 | x | x | x | -13
Cc1ccc(C(=O)NCC(=O)N2CCCN(C)CC2)cc1C | 1 | 8393 | x | -9 | 7 | 0.0 | 0
COc1ccc(C2=[N+]([O-])C(C)(C)N(O)C2(C)C)cc1 | -3 | 3369 | -6 | 14 | 15 | 7.0 | -32
COCCCNS(=O)(=O)c1ccc(S(=O)(=O)N2CCCC2)cc1 | 1 | 3773 | 5 | 7 | 8 | -2.5 | -21
CC(=O)NC1=C(N(C)C2CCS(=O)(=O)C2)C(=O)c2ccccc2C1=O (stereo not drawn) | x | 9041 | -7 | x | x | x | -30
CC1(C)CC(=O)C=C(c2ccc(I)cc2)C1 | 5 | 3544 | x | 15 | 2 | 4.3 | -8
O=C(NNC(=O)C1CC1c1ccccc1)c1cccc([N+](=O)[O-])c1 (stereo not drawn) | 0 | 1983 | 3 | 5 | 1 | 1.5 | -6
Cc1cc(C)cc(N(CCC#N)C(=O)COC(=O)C2CCN(S(=O)(=O)c3ccc(C)c(C)c3)CC2)c1 | 5 | 5707 | -7 | 2 | 5 | -6.3 | -9
COc1ccc(CCn2c(C3CCCCC3)nc3c(c(=O)c4ccccc4n3C)c2=O)cc1OC | 2 | 6124 | -11 | 2 | -3 | 1.8 | -14
CC(=O)NC12CC3CC(C1)CC(C(=O)N1CCN(S(=O)(=O)c4ccccc4[N+](=O)[O-])CC1)(C3)C2 | 4 | 3966 | x | 5 | 3 | 4.0 | -1
COc1ccccc1OCC(O)Cn1nc(C)cc1C (stereo not drawn) | -4 | 3680 | -1 | -66 | 15 | 5.4 | -20
Cc1ccc(Nc2nnc(SC(C)C(=O)NCC3CCCO3)s2)cc1C (stereo not drawn) | -6 | u | 4 | 16 | 5 | 1.6 | -11
O=C(CSc1ccsc1[N+](=O)[O-])N1CCN(c2ccc(Cl)cc2)CC1 | 0 | 2500 | -10 | 14 | 11 | 2.7 | -12
Cc1cccc(OCc2nnc(SCC(=O)Nc3cccc(C(=O)N4CCOCC4)c3)o2)c1C | 6 | 2294 | 11 | 8 | 6 | 3.3 | -8
Cc1ccc(C)c(OCC(=O)NN=Cc2cccn2C)c1 | -1 | x | x | 14 | 4 | 10 | x
Cc1cc(OCCCC(=O)Nc2nnc(C3CC3)s2)ccc1Cl | 1 | 3882 | x | -2 | -1 | 1.4 | -17
CC(C)Oc1ccc(Cn2c(=O)sc3ccccc32)cc1 | 11 | 4635 | -8 | x | x | 17 | -6
CC(c1ccccc1)N1C(=O)c2cccnc2C1=O (stereo not drawn) | 7 | 3691 | 9 | 7 | 9 | -3.0 | -23
CCc1noc(C)c1C(=O)Nc1cccc(S(=O)(=O)N(C)c2ccccc2)c1 | -1 | u | 0 | 3 | 0 | 5.4 | -19
O=C(CNC1=NCCC1)c1ccc(Cl)cc1 | 11 | 2087 | 7 | -1 | 0 | 3.5 | -1
O=C(CSc1ccc(-c2ccccn2)nn1)c1ccc(F)cc1 | 0 | 4930 | 3 | -6 | -1 | 1.5 | -27
CCOC(=O)CN1CC23C=CC(O2)C(C(=O)NCc2ccc(F)cc2)C3C1=O (stereo not drawn) | -1 | 6314 | -19 | x | x | 3.4 | 34
CCOc1cc2[nH]c(=O)n(CCCCC(=O)N3CCCCCC3)c(=O)c2cc1OCC | 1 | 9452 | 4 | 10 | 20 | 2.7 | -8
COc1cc(/C=C(/C#N)C(=O)NCCc2c[nH]c3ccccc23)ccc1OCc1ccccc1F | 2 | 23745* | 9 | 6 | -5 | 2.3 | -40
CCCCC(=O)Nc1cc(N(C)C)nc2ccccc12 | 12 | 3629 | -2 | x | x | 3.7 | -18
CN(c1ccccc1)S(=O)(=O)c1ccc2c(c1)oc(=O)n2C | x | 3903 | -4 | x | x | x | -31
COc1ccc(C2NC(=O)c3ccccc3O2)cc1OC (stereo not drawn) | 15 | 6298 | -1 | 11 | 12 | 9.1 | -15
C=CCOc1ccc(/C=C2/C(=O)ON=C2C)cc1OC | 4 | 3879 | -1 | -1 | -1 | 5.5 | -1
Cc1ccc(S(=O)(=O)N2CCC(=O)N(C(COCc3ccccc3)Cc3ccccc3)CC2)cc1 (stereo not drawn) | 6 | 2818 | -4 | 1 | -3 | 4.8 | -27
Cc1cc(C(=O)NN=C2CCCCC2)c2ccccc2n1 | 2 | 2435 | x | 11 | 7 | 6.9 | -19
COC(=O)c1sc(NC(=O)c2cc3c(s2)CCCC3)nc1C | -5 | 25221* | -1 | 7 | -4 | 2.4 | -290
COc1ccc2oc(=O)c(-c3csc(Nc4ccc(O)cc4)n3)cc2c1 | -3 | 1990 | 0 | 0 | 1 | -1.7 | -45
CC(C)(C)c1ccc(S(=O)(=O)Nc2ccc(C(=O)N3CCCC3)cc2)cc1 | 5 | 5779 | -3 | 12 | -2 | 2.4 | -32
CN(Cc1ccc(F)cc1)C(=O)c1cccc(OCc2ccccc2)c1 | 12 | 5887 | 5 | 7 | 3 | 6.9 | -7
CCCCn1c(SCC(=O)Nc2ccccc2C(F)(F)F)nc2ccsc2c1=O | -4 | u | -4 | 2 | 4 | 0.0 | -21
COc1ccc(NC(=O)CSc2nnc(-c3cccs3)n2N)c(OC)c1 | 0 | 4626 | 21 | 5 | 0 | 1.3 | -11
Cc1ccc(C(=O)Nc2sc(C(=O)N(C)C)c(C)c2C#N)cc1 | 4 | 2060 | 0 | 1 | 2 | 3.6 | -1
